Screening data: PubChem, ICCB-Longwood Screening Facility, Harvard Medical School
Sa growth inh = S. aureus growth inhibition at 42 and 30 °C, primary screen, LtaS inhibitor project, RN4220, two temperatures; OD600, 20 h, 42 °C; active compounds read low; relative growth, % (no concentration beside the values); 170,000 tested, 0.53% active; AID 720641, 2013;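 active = growth at 42 °C up to 50% and 20 or more points under that at 30 °C, or under 10% at both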;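 also: 300 nL library stock went into each well; scaled to the means of positive and negative controls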
GIV-Gai inh = inhibitors of GIV peptide binding to Galpha-i3, primary screen, biochemical, fluorescence polarization, FITC-GIV GBA peptide, rat Galphai3; Guanine nucleotide-binding protein G(i) subunit alpha-3 (Rattus norvegicus), P08753; 90 min; active compounds read low; scaled: aluminum fluoride 0%, vehicle 100%; percent of control (FP), % (no concentration beside the values); 210,000 tested, 0.42% active; AID 1224905, 2016;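 active = replicate mean at 85% of control or lower, very high polarization wells dropped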;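 also: wells of about 15 µL received 100 nL stock; the first replicate is given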
Target sequence (P08753 whole entry, looked up): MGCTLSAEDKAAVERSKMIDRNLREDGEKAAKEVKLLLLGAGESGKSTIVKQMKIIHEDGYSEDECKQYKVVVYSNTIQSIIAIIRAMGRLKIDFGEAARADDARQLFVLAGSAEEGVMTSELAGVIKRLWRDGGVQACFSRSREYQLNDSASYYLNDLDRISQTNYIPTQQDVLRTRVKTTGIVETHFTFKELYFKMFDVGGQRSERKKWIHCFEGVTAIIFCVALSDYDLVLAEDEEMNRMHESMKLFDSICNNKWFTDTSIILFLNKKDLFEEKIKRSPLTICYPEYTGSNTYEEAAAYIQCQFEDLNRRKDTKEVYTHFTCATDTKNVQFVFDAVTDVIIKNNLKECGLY
HCMV UL50-53 inh = inhibitors of HCMV UL50-UL53 interaction, biochemical, HTRF. AID 1918969, 2023. normalized percent inhibition. HCMV UL50-UL53 nuclear egress complex (human cytomegalovirus). 190,000 tested, 0.15% active. inhibition, % (concentration not given with the values);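 active = both replicates at 50% or more, plus weaker picks with an unusually low signal ratio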;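 also: stock transfer was 100 nL into about 20 µL; 0% = negative control wells and 100% = wells with untagged competitor protein; inactives centre near -12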
Sa growth inh second temp = recorded beside Sa growth inh, whose call it bears; relative growth, %; measured here: growth at 30 °C;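 optical density after 20 h as mean of two plates; 100% = untreated growth and lower means inhibition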
* = called active by the depositor; x = no result given; & = joins results of further samples.

Start of the listing, in advance, five compounds:
Structure,GIV-Gai inh,Sa growth inh,HCMV UL50-53 inh,Sa growth inh second temp
Nc1cccc(C(=O)OC2CSC2)c1,x,93,8,78
O=C(/C=C/c1ccco1)NCCSc1ncc(-c2ccc(F)cc2)[nH]1,106,112,-30,91
CCC(Sc1nc2ncccc2o1)C(=O)N(Cc1ccccc1)C(C)C (stereo unspecified),109,32,-29,45
Cc1cccc(-c2nccc(N3CCC(C(=O)NC4CCCc5ccccc54)CC3)n2)c1 (stereo unspecified),107,x,-10,x
O=S(=O)(c1ccccc1)N1CCC(c2ccncc2)CC1,103,111,x,92

The listing, from the first entry:
Structure,GIV-Gai inh,Sa growth inh,HCMV UL50-53 inh,Sa growth inh second temp
Nc1cccc(C(=O)OC2CSC2)c1,x,93,8,78
O=C(/C=C/c1ccco1)NCCSc1ncc(-c2ccc(F)cc2)[nH]1,106,112,-30,91
CCC(Sc1nc2ncccc2o1)C(=O)N(Cc1ccccc1)C(C)C (stereo unspecified),109,32,-29,45
Cc1cccc(-c2nccc(N3CCC(C(=O)NC4CCCc5ccccc54)CC3)n2)c1 (stereo unspecified),107,x,-10,x
O=S(=O)(c1ccccc1)N1CCC(c2ccncc2)CC1,103,111,x,92
C=CCNCCOc1ccc(Cl)cc1C(C)(C)C,103,109,-8,55
CC(NC(=O)c1ccc2c(c1)CCN2S(=O)(=O)c1ccccc1)c1ccccc1 (stereo unspecified),105,106,-9,91
CC(=O)OCC1=C(C(=O)O)N2C(=O)[C@@H](NC(=O)Cc3cccs3)[C@H]2SC1,99,-0.7*,-18&-12&-23,-1.1*
Cc1ccc(NC(=O)NCCCn2c(-c3ccncc3)nc3cccnc32)cc1C,107,x,1,x
COc1cccc(NC(=O)C2=C(C)C(=O)OC23CCN(C(C)=O)CC3)c1,95,83,x,92
N#Cc1c(NC(=O)COC(=O)c2cccs2)sc2c1CCC2,100,107,5,93
CC1CCCC(NC(=O)NC(=O)CN2C(=O)C3CC=CCC3C2=O)C1C (stereo unspecified),x,85,-14,89
O=C(C1CC(c2ccc(F)cc2)=NO1)N1CCCc2ccccc21 (stereo unspecified),102,115,x,92
Cc1c(-c2ccc(C3C4=C(CC(C)(C)CC4=O)OC4=C3C(=O)CC(C)(C)C4)o2)ccc([N+](=O)[O-])c1C,100,x,-15,x
c1ccc(-c2cc3ccsc3s2)cc1,96,105,-19,104
OC(CN1CCN(C(c2ccccc2)c2ccccc2)CC1)Oc1ccc(Cl)c(Cl)c1 (stereo unspecified),103,137,5,109
Cc1ccc(S(=O)(=O)N2CCN(C(=O)c3ccc(Br)o3)CC2)cc1,x,86,-17,88
Oc1ccc(C23CC4CC(CC(C4)C2)C3)cc1O,x,84,-15,82
CCCn1c(=O)c2cc(Cl)ccc2n2c(=S)[nH]nc12,101,x,-14,x
CCN(C(=O)c1ccc(OC(C)C)cc1)C1CCS(=O)(=O)C1 (stereo unspecified),x,103,0,91
Cc1c(C2=NNC(O)(C(F)(F)F)C2)sc2ccccc12 (stereo unspecified),100,42,-42,24
CCNc1nc(NCC)nc(OCCNS(=O)(=O)c2cc(C)ccc2C)n1,96,x,-4,x
Cc1oc2ncn3nc(CCn4c(C)nc5ccccc54)nc3c2c1C,124,98,-25,67
O=C(CN1C(=O)CCSc2ccccc21)Nc1ccccc1,106,97,-30,94
CCOC(=O)CSc1nc2ccc(C(F)(F)F)cc2[nH]1,110,95,3,97
CCOc1ccccc1CNC(=O)c1cn(-c2ccc(OC)cc2)c(=O)c2ccccc12,98,103,x,107
CC1CCC(NC(=O)CCCn2sc3ccccc3c2=O)CC1 (stereo unspecified),97,99,-25,88
O=[N+]([O-])c1ccc(C(c2sc3nc(-c4ccco4)nn3c2O)N2CCC3(CC2)OCCO3)cc1 (stereo unspecified),98,124,x,86
COc1ccc(-c2noc(=O)n2-c2cccnc2)cc1,103,114,-6,87
CC1CCN(C(=O)COc2ccc(-c3ccccc3)cc2)CC1,105,61,-16,35
O=C(CSc1ccccc1)Nc1c(C(=O)C2CC2)oc2ccccc12,x,97,-5,92
COc1ccc(C(CNC(=O)c2cccc(OC)c2)N2CCCCC2)cc1 (stereo unspecified),100,x,-9,x
CCOC(=O)c1c(NC(=O)COC(=O)C2CC(=O)N(Cc3ccco3)C2)sc(C(=O)NC)c1C (stereo unspecified),x,73,-8,94
COc1cccc(CNC(=O)Cn2c(=O)oc3cc(S(=O)(=O)N4CCCC4)ccc32)c1,106,104,8,87
Cc1oc(-c2ccc(Cl)cc2)nc1CN1CCC(C(=O)NC(C)CCc2ccccc2)CC1 (stereo unspecified),106,116,x,91
O=c1c(=N\O)/c(=N/O)c(=O)c2ccccc12,59*,34,97*,0

3 entries picked at random from those above:
Structure,GIV-Gai inh,Sa growth inh,HCMV UL50-53 inh,Sa growth inh second temp
CC1CCN(C(=O)COc2ccc(-c3ccccc3)cc2)CC1,105,61,-16,35
COc1cccc(CNC(=O)Cn2c(=O)oc3cc(S(=O)(=O)N4CCCC4)ccc32)c1,106,104,8,87
CC1CCC(NC(=O)CCCn2sc3ccccc3c2=O)CC1 (stereo unspecified),97,99,-25,88

Continuation:
Structure,GIV-Gai inh,Sa growth inh,HCMV UL50-53 inh,Sa growth inh second temp
CCc1ccc(NC(=O)CCC2=NS(=O)(=O)c3ccccc3N2)cc1,102,90,-19,87
Cc1cccn2c(=O)c(/C=C3\SC(=S)N(C(C)C)C3=O)c(N3CC(C)OC(C)C3)nc12 (stereo unspecified),138,90,-15,83
Cc1cccnc1NCC(O)COc1ccccc1 (stereo unspecified),103,111,-15,85
CC(C)C1Nc2ccccc2S(=O)(=O)N1 (stereo unspecified),103&103,102,-33,87
O=C(NC1CCCC1)c1ccccc1-c1nc(-c2ccccc2)no1,96,x,-5,x
O=C(CSc1nncn2c1cc1occc12)Nc1ccccc1C(F)(F)F,110,112,x,81
CSc1ccccc1NC(=O)CN(C)Cc1cc(=O)n2ccsc2n1,x,91,-5,101
Cc1nn(Cc2ccccc2Cl)c(C)c1C(=O)N(CC1CCCO1)C1CCS(=O)(=O)C1 (stereo unspecified),x,104,7,95
Cc1cccc2nc3c(nc12)-c1ccccc1C3=Nc1ccccc1,x,101,-24,90
CCN(CC)C(=O)C1CC(c2ccc(OC)cc2)=NO1 (stereo unspecified),99,94,-8,87
N#CC1=C(Nc2ccc(Br)cc2)CCC1,99,126,-11,116
N#Cc1ccc(C=Nc2ccc(C(N)=O)cc2)cc1,102,74,-43,90
CCc1cccc(NC(=O)C2CCN(c3nnc(-n4cccc4)s3)CC2)c1,111,91,-4,105
CC(=O)O[C@]1(C(C)=O)CCC2C3C=C(Cl)C4=CC(=O)CC[C@]4(C)C3CC[C@@]21C (stereo partly specified),x,100,-59,85
O=C(OCC(=O)N1c2ccccc2Sc2ccccc21)C1CC(=O)N(Cc2ccco2)C1 (stereo unspecified),x,115,13,97
CCOc1ccc2ncc3c(-c4ccc(C)cc4)nn(-c4cccc(F)c4)c3c2c1,103,103,-8,96
COc1ccccc1N1CCN(C(=O)c2cc(-c3ccc(C)s3)nc3ccccc23)CC1,102,x,-20,x
CN1C(=O)C(=Cc2ccccc2OCc2ccccc2)C(=O)N(C)C1=S,106,67,x,24
CC(C)C(=O)Nc1ccc2nc(SCC(=O)N3CCCC3)sc2c1,104&101,95,-29&-12,84
C=C(C)Cn1c(=O)n(Cc2ccccc2)c(=O)c2cc3c(nc21)CC(C)(C)OC3,107,x,-27,x
COc1cc(C2C3=C(CC(c4ccc(O)cc4)CC3=O)Nc3onc(C)c32)ccc1O (stereo unspecified),104,x,-13,x
Cc1ccc(C(=O)NCC(c2cccnc2)N2CCc3ccccc32)cc1C (stereo unspecified),110,102,-17,81
C=CCn1c(SCC(=O)NCCN2CCOCC2)nc2sc3c(c2c1=O)CCCC3,105,x,-28,x
Cn1cc(S(=O)(=O)c2ccccc2)c(=O)c2cc(F)c(N3CCN(c4ccc(F)cc4)CC3)cc21,105&104,101,-6,108
COc1ccccc1NC(=O)N1CCN(Cc2nc3ccc(C)cc3o2)CC1,98,85,x,88
O=C(Oc1cccc(Nc2ncnc3ccccc23)c1)c1cccnc1,106,113,2,92
NC(=O)C1CC(=O)N(c2ccc(OCC(=O)N3CCCC3)cc2)C1 (stereo unspecified),107,93,-26,85
Cc1[nH][nH]c(=O)c1C(c1cccc(Cl)c1)C(C#N)C#N (stereo unspecified),95,76,3,71
COc1ccc(/C(O)=C/c2nc3ccc(C(=O)N4CCN(c5cccc(C)c5C)CC4)cc3[nH]c2=O)cc1,116,101,-8,94
COc1ccc2c(c1)c(C(=O)OCCN(C)C)c(C)n2C,103,93,-20,83
N#CCSc1nnc2sc3ccccc3n12,102,x,5,x
CCCCn1nnnc1COC(=O)c1sc2cc(Cl)ccc2c1Cl,x,90,-24,91
O=c1sn(-c2ccc(F)c(Cl)c2)c(=O)n1C1Cc2ccccc2C1,102,78,-29,62
CCC1(C)Cc2c(C#N)c(N)n(N)c(=S)c2CO1 (stereo unspecified),104,112,-29,99
CC(C)NC(=O)CCC1CCCCC1,x,78,-32,87
Cc1ccsc1C(=O)OCC(=O)N1C(C)CCCC1C (stereo unspecified),x,106,-22,96
CCn1c(Cn2cccn2)nc2cc(NC(C)=O)ccc21,98,x,-13,x
O=c1c2oc3ccccc3c2n(Cc2cccc(Cl)c2)c(=O)n1Cc1ccc2c(c1)OCO2,103,103,x,89

The order is random; any-hit rate near 0.79%.
